Source: PubChem BioAssay
Rango release inh: inhibition of RanGTP-driven Rango-importin beta dissociation | Biochemical FRET Rango-importin beta, RanGTP-induced dissociation | Potency, µM (highest dose often 46.1 µM), without a hit: top-dose activity change, negative = inhibition | hit rate 0.071% among 340,000 | AID 540253; active means falling FRET ratio curve, often poorly fitted, with flat reads before Ran was added; inconclusive means other falling curves, or compound fluorescence or quenching; inactive means flat or rising ratio curve;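 further: potency means the concentration at half of the fitted maximal effect; % of control where 0% means no effect; nearly all actives have a fitted effect of over 45% in size; -100% = wells without RanGTP and RCC1; the record marks most hits as doubtful in a second field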
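Compounds preincubate 5 min with complex of recombinant Rango and importin beta in PBS with 1 mM DTT. Ran (0.6 uM) loaded with 2 mM GTP plus 0.2 uM RCC1 starts dissociation; FRET is recorded 45 min later.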
GLA inh pH 4.5: alpha-galactosidase A (human) inhibition, pH 4.5; P06280; purified enzyme, 4-MU-alpha-Gal fluorescence, pH 4.5; activity change, negative = inhibition, % at 105 µM; 230,000 tested, under 10 active; inconclusive = small, poorly fitted or top-dose-only inhibition, or a rising curve; inactive = flat fitted curve, though single readings scatter; no compound was filed as active;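 further: 0% = full activity with enzyme and -100% = basal without enzyme; dose as in the result columns while the protocol names 77 µM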
miR-21 reporter: miR-21 reporter, rising signal; HeLa miR-21 FLuc reporter, luciferase, 48 h; Potency, µM (top dose mostly 38.3 µM), inactives show at the highest dose reporter change, positive = more light; 340,000 tested, under 10 active; AID 2288; active = well fitted rising curve with a large enough effect; inconclusive = small, poorly fitted or top-dose-only effect; inactive = no such curve, though single readings can be large or run the other way;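 further: % of control where 0% means no effect; miR-21 action dims this reporter so a rising signal means less miR-21 action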
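HeLa cells stably expressing CMV-driven firefly luciferase with a downstream miR-21 binding sequence, endogenously expressing miR-21, were treated with titrations (up to about 40uM final) for 48 hours at 37 degree Celsius. Luciferase luminescence was read after lysis.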
Rango-impB inh: inhibitors of Rango-importin beta complex formation. Rango CFP/YFP FRET sensor + importin beta, 45 min. Potency, µM (doses to about 92.2 µM), without a hit: top-dose inhibition of complex formation. AID 540263. Q14974. hit rate 0.031% among 340,000; active = rising FRET ratio curve, often small or poorly fitted; inconclusive = mostly compound fluorescence or quenching in the first reads; inactive = flat curves in all reads;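 further: potency means the concentration at half of the fitted maximal effect; 0% = DMSO wells and 100% = buffer wells lacking importin beta; nearly all actives have a fitted effect of over 15% in size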
Target sequence (Q14974 whole entry, looked up): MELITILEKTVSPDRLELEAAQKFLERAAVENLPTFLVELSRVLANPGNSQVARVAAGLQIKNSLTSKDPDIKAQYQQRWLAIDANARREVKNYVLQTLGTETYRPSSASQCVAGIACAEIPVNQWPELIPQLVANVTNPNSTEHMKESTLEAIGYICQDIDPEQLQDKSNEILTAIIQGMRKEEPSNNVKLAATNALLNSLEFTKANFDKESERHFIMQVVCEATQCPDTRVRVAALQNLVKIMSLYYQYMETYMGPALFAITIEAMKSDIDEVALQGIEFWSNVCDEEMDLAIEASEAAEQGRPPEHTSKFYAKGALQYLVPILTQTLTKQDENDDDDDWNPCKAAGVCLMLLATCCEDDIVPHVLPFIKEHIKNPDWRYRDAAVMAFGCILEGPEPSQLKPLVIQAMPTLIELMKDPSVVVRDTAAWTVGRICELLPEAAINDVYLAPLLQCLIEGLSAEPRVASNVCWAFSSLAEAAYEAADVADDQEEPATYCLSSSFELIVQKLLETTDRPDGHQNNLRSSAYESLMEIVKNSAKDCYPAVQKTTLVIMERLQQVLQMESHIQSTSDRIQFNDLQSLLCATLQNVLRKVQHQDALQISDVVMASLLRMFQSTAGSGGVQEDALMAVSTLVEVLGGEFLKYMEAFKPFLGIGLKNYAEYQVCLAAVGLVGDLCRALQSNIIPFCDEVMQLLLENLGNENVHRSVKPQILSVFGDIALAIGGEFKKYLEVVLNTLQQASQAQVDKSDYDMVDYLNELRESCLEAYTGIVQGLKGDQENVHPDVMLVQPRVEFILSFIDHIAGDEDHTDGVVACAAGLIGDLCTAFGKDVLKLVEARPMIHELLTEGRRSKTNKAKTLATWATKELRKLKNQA
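FRET biosensor Rango (snurportin 1 IBB between N-terminal EYFP and C-terminal Cerulean), 50 nM in PBS/1 mM DTT/0.02% Tween-20/0.1% BSA, preincubated 5 min RT with compound; 0.125 microM importin beta added, 45 min RT, CFP/YFP FRET ratio read.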
Starred values were filed as active, the others as inactive; u = inconclusive; x = no result given; & = joins results of further samples; [ ] = another dose, or the depositor's remark.

SMILES	Rango release inh	GLA inh pH 4.5	miR-21 reporter	Rango-impB inh
CCOC(=O)N1CCN(CC(O)COc2cc(C)cc(C)c2)CC1 (stereo not drawn)	9%	x	-4%	1.3%
CCCCSc1nc(C(=O)O)cc(=O)[nH]1	-7%	1	-4%	1.2%
CCN(CC)CCCN1C=C2C(=O)C(C)(OC(=O)CCc3ccccc3)C(=O)C=C2C=C1c1ccc(C#N)cc1 (stereo not drawn)	u	2&-14	5%	u
COCc1c(C(=O)OC/C(O)=C(\C#N)c2nc3ccccc3[nH]2)oc2ccccc12	-24%	7	-2%	u
Cc1ccc(-n2c(C)cc(/C=C3/SC(=O)N(CC(=O)N4CCOCC4)C3=O)c2C)nc1	3%	-1	-4%	0.6%
N=c1c(S(=O)(=O)c2ccc(Cl)cc2)cc2c(=O)n3ccccc3nc2n1Cc1cccnc1	u	x	-7%	u
CNC(=O)c1cc(C(=O)c2ccc(C(F)(F)F)cc2)c[nH]1	2%	x	-53%	0.1%
CC(C)NC(=O)c1ccc(COc2cc(Cl)ccc2Cl)o1	1%	x	-18%	2.8%
CCN1CCN(S(=O)(=O)c2ccc(S(=O)(=O)N(CC)Cc3ccccc3)cc2)CC1	2%	-2	-3%	0.1%
Cc1cc(C(=O)N2CCCC(N3CCN(c4ccccc4C)CC3)C2)nc(C)n1 (stereo not drawn)	0%	x	0%	0.1%
CCn1ncc(Br)c1C(=O)Nc1ccc(Cl)cn1	1%	1	-1%	5.2%
O=C(O)C1=NN(c2ccccc2)C(=O)C1	-2%	-5	-5%	-0.5%
CC1(C)Cc2c(sc3nc(C4CC4)n(N)c(=O)c23)CO1	5%	1	3%	-3.4%
COC(=O)c1ccccc1-c1ccc(/C=N/NC(=O)c2cc3ccccc3o2)o1	-4%	-6	1%	u
CC(C)[C@H](NC(=O)c1cc2cc(Cl)ccc2n1C)C(=O)N1CCC(C(=O)O)CC1	5%	x	-12%	0.5%
Cc1ccc(S(=O)(=O)N2CCOCC2)cc1NC(=O)CSc1nnc(NC2CC2)s1	-12%	x	x	3.2%
COc1ccc(C(=O)Nc2cc3c(cc2N2CCCCC2)n(C)c(=O)n3C)cc1OC	26%	x	-3%	0.0%
Cc1ccc2oc(=O)c3cc(C(=O)NCCN4CCN(C)CC4)sc3c2c1	20%	5	-1%	-2.0%
COc1ccc(NC(=O)CSc2nc(C)cs2)c([N+](=O)[O-])c1	-2%	x	x	-0.1%
CCCCN(CC)CCCNC(=S)Nc1ccc2nc3n(c(=O)c2c1)CCCCC3	4%	2	-16%	-3.3%
S=c1[nH]nc(C2CC2)n1Cc1ccccc1	14%	10	-1%	6.7%
COC(=O)Nc1ccc2c(c1)N(C(=O)CCCl)c1ccccc1S2	-5%	x	5%	-1.8%
CCSc1nnc(NC(=O)CN2C(=O)C3CC=CCC3C2=O)s1 (stereo not drawn)	4%	3	-4%	1.7%
CC1(C)CC[C@]2(C(=O)O[C@@H]3OC(CO)[C@@H](O)[C@H](O)[C@H]3O)CC[C@]3(C)C(=CCC4[C@@]5(C)CC[C@H](O[C@@H]6OC(C(=O)O)[C@@H](O)[C@H](O)[C@H]6O)C(C)(C)C5CC[C@]43C)[C@@H]2C1 (stereo partly drawn)	1%	x	x	u

A second format for seven compounds above.
Sequence of screens – Rango release inh | GLA inh pH 4.5 | miR-21 reporter | Rango-impB inh
COc1ccc(C(=O)Nc2cc3c(cc2N2CCCCC2)n(C)c(=O)n3C)cc1OC
 : 26% | x | -3% | 0.0%
Cc1ccc2oc(=O)c3cc(C(=O)NCCN4CCN(C)CC4)sc3c2c1
 : 20% | 5 | -1% | -2.0%
COc1ccc(NC(=O)CSc2nc(C)cs2)c([N+](=O)[O-])c1
 : -2% | x | x | -0.1%
CCCCN(CC)CCCNC(=S)Nc1ccc2nc3n(c(=O)c2c1)CCCCC3
 : 4% | 2 | -16% | -3.3%
S=c1[nH]nc(C2CC2)n1Cc1ccccc1
 : 14% | 10 | -1% | 6.7%
COC(=O)Nc1ccc2c(c1)N(C(=O)CCCl)c1ccccc1S2
 : -5% | x | 5% | -1.8%
CCSc1nnc(NC(=O)CN2C(=O)C3CC=CCC3C2=O)s1 (stereo not drawn)
 : 4% | 3 | -4% | 1.7%

Next section
SMILES	Rango release inh	GLA inh pH 4.5	miR-21 reporter	Rango-impB inh
CCCCOc1ccc(C(=O)NCC(=O)NC2CCN(Cc3ccccc3)CC2)cc1	-2%	x	-5%	-1.2%
Cc1nc(COC(=O)c2c(C)nn(-c3ccccc3)c2C)cs1	4%	3	-72%	0.7%
CC[C@]12c3[nH]c4ccc(Cl)cc4c3CCN1C(=O)[C@@H](CC(=O)NCCN1CCOCC1)C[C@@H]2C(=O)N1CCN(C(=O)C2CC2)CC1	-2%	x	x	4.2%
CC(C)(C)OC(=O)N[C@@H](COCc1ccccc1)C(=O)N[C@@H](CO)[C@H](O)[C@@H]1C[C@@H]1C(=O)NC1CC1	1%	x	0%	3.1%
CCOC(=O)CC(=O)CSc1ncnc2c1oc1ccccc12	-17%	2	-26%	u
CCOC(=O)c1nnsc1NC(C)=O	7%	5	0%	-3.2%
COc1ccc(NC(=O)c2sc3nc(C)nc(N4CCOCC4)c3c2C)c(OC)c1	-3%	6	-3%	0.4%
CCC(C)(C)NC(=O)C(c1ccc(OC)cc1)N(C(=O)CCC(=O)Nc1cc(C)on1)C1CC1 (stereo not drawn)	-17%	x	2%	u
Cc1sc2ncn(CC(=O)NCCCC(=O)N3CCN(c4ccccn4)CC3)c(=O)c2c1C	4%	-5	6%	-5.2%
CCCCN(C)C(=O)C(Cc1ccccc1)NS(=O)(=O)c1ccc2c(c1)c(=O)n(C)c(=O)n2C (stereo not drawn)	0%	-13	0%&-6%	-6.7%
COCCN(C(=O)COC(=O)c1ccc2c(c1)OCCO2)c1c(N)n(Cc2ccccc2)c(=O)[nH]c1=O	-3%	x	x	-3.1%
CCc1c(C)sc(NC(=O)Cc2ccccc2C)c1C(=O)N1CCOCC1	22%	x	2%	0.0%

Compounds listed so far with a cyano group, in the order listed:
SMILES	Rango release inh	GLA inh pH 4.5	miR-21 reporter	Rango-impB inh
CCN(CC)CCCN1C=C2C(=O)C(C)(OC(=O)CCc3ccccc3)C(=O)C=C2C=C1c1ccc(C#N)cc1 (stereo not drawn)	u	2&-14	5%	u
COCc1c(C(=O)OC/C(O)=C(\C#N)c2nc3ccccc3[nH]2)oc2ccccc12	-24%	7	-2%	u

(more compounds)
SMILES	Rango release inh	GLA inh pH 4.5	miR-21 reporter	Rango-impB inh
Nc1c2c(nc3ccccc13)CCC2	17%	5	-2%	-5.3%
CCOc1ccc(C(=O)NCC(=O)OCCN2C(=O)c3ccccc3C2=O)cc1OCC	0%	x	x	3.7%
CN(C)CCNc1ncnc2c1sc1nc(N3CCCC3)c3c(c12)CC(C)(C)OC3	-1%	-3	17%	1.9%
O=C(COC(=O)CCc1ccccc1)Nc1ncc(Cl)cc1Cl	-2%	-1	1%	0.7%
Cc1onc(-c2c(F)cccc2Cl)c1C(=O)NCCCN1CCOCC1	0%	-2	-2%	-1.1%
CCOc1ccc(C(=O)Nc2cccc(-c3nc4ccccc4[nH]3)c2C)cc1[N+](=O)[O-]	8%	-12	-16%	-0.5%
COc1cc2c(=O)n(Cc3ccccc3)c(=O)n(CC(=O)NCc3ccco3)c2cc1OC	7%	5	8%	-3.3%
CCn1cc(C(=O)N2CCCC2)c(=O)c2cc(S(=O)(=O)N3CCOCC3)ccc21	5%	10	0%	0.8%
COc1cccc(N(C(=O)Cn2nnc(-c3ccc(Cl)cc3)n2)C(C(=O)NCC2CCCO2)c2ccc(C)cc2)c1 (stereo not drawn)	-7%	-1	0%	1.0%
CCCCCCCCS(=O)C1CS(=O)(=O)CC1O (stereo not drawn)	-6%	-14	-4%	-0.4%
OC(c1cccc(OCc2ccccc2)c1)c1nnc(-c2ccccc2)o1 (stereo not drawn)	-2%	-11	4%	0.2%
O=C(CC(c1ccccc1)c1ccccc1)Nc1ncn[nH]1	6%	2	-3%	0.3%
CC(=O)Nc1cccc(-c2nnc3n2CC(C)S3)c1 (stereo not drawn)	1%	-5	0%	2.0%
COc1ccc(S(=O)(=O)Nc2c(O)ccc3ccccc23)cc1OC	18%	x	x	-1.8%
CC(Nc1ccccc1CO)C(=O)Nc1cccc(Cl)c1Cl (stereo not drawn)	1%	2	2%	-0.2%
CC1(C2CCCC2)NC(=O)NC1=O (stereo not drawn)	4%	x	x	2.2%
Cc1ccccc1NC(=O)Nc1nc2ccc(S(C)(=O)=O)cc2s1	8%	-6	-42%	2.2%
CC1CCCC(NC(=O)CN(C)S(=O)(=O)c2cnc[nH]2)C1C (stereo not drawn)	52%	4[21.1 µM]	-3%	2.3%
Cc1cccc(CCN=c2c([N+](=O)[O-])nn(-c3ccccc3)n2O)c1	1%	2	-2%	-2.8%
Cc1ccc(C(=O)COC(=O)CN2C(=O)C3C4C=CC(C4)C3C2=O)cc1C (stereo not drawn)	14%	x	2%	-1.0%
COC(=O)C(Cc1ccccc1)NC(=O)c1cc(S(=O)(=O)N(C)C)ccc1Cl (stereo not drawn)	11%	12	-1%	-3.8%
CC(C)c1ccccc1-n1c(SCC(=O)N2CCc3ccccc3C2)nc2ccccc2c1=O	2%	3	u	4.9%
CC(C)COC(=S)Nc1ccccc1	-3%	-9	-20%	-2.4%
COc1ccc(C(=O)C2CCCN(C(=O)Cn3nc(C)cc3C)C2)cc1F (stereo not drawn)	-12%	-6	1%	-0.2%
COc1ccc(OC)c(NC(=O)C2C3C=CC(C3)C2C(=O)NCc2cccnc2)c1 (stereo not drawn)	0%	4	2%	2.3%
S=C(NCc1ccccc1)Nc1ccc(Oc2ccccc2)cc1	15%	x	21%	-3.2%
CC1CC(C)CN(C(=O)COC(=O)c2cncc(Br)c2)C1 (stereo not drawn)	3%	x	x	1.4%
Cc1ccc(C(=O)c2sc3c(c2N)c(=O)[nH]c(=O)n3CCc2ccccc2)cc1	1%	-9	-3%	2.3%
CCCCCC(=O)NN1C(=S)N(c2ccc(OC)cc2)C(=O)C1CC(=O)Nc1ccccc1 (stereo not drawn)	6%	-6	-11%	1.6%
CN1CCN(c2nc(-c3ccccc3)c3cc(Cl)ccc3n2)CC1	u	4	-7%	u
CCN(C(N)=S)c1ccccc1	28%	-2	-2%	-0.2%
O=C1CC(Nc2ccc(N3CCOCC3)cc2)C(=O)N1Cc1ccccc1 (stereo not drawn)	1%	-10	-1%	-1.4%
CC1CN(C(=O)c2ccc(NS(=O)(=O)c3ccc(F)c(F)c3)cc2)CC(C)O1 (stereo not drawn)	8%	x	x	2.5%
Cc1cc(C(=O)N/N=C/c2c(CO)cnc(C)c2O)c2ccccc2n1	0%	x	22%	u
CC(C)c1cc(C(=O)Nc2sc3c(c2C#N)CCC3)no1	8%	1	-5%	-0.9%
COc1cc(NC(=O)c2ccc(Cl)cc2)c(OC)cc1Cl	12%	-6	-11%	-2.3%
Clc1ccc(-n2cccc2)cn1	-10%	3	-2%	-2.8%
CCCSc1nnc(NC(=O)CSc2sc3c(O)cc(=O)[nH]c3c2C#N)s1	-15%	x	-1%	-0.8%
CCCN(CC(=O)Nc1ccccc1C)C(=O)/C=C/c1cccs1	-6%	0	-5%	-0.3%
Cn1c(CN2CCN(C(=O)c3ccco3)CC2)nc2cc([N+](=O)[O-])ccc21	12%	x	-7%	3.6%
COc1ccc(OCC(=O)C2CC2)c(C#N)c1	-7%	7	-45%	5.0%
N/C(=N\OC(=O)Nc1ccccc1)c1ccno1	1%	-3	-15%	-1.4%
CC1(/[N+]([O-])=C/c2cccc(Cl)c2)CCCCC1=O (stereo not drawn)	u	1	0%	u
CNC(=O)COc1ccc(C=O)cc1OC	8%	-1	-3%	-1.1%
CCOC(=O)/C(C#N)=C\C1=C(N2CCOCC2)CC(C)(C)OC1	-11%	-16	-2%	u
O=C(C1CCCN(Cc2ccccc2[N+](=O)[O-])C1)N1CCCC1 (stereo not drawn)	-1%	x	1%	0.6%
Cc1c(C(=O)N2CCCC2)c(S(=O)(=O)Nc2ccccc2Cl)c(C)n1C	2%	x	-3%	2.0%
COc1ccc(OC)c(C(c2nnnn2Cc2ccccc2)N2CCC(C(N)=O)CC2)c1 (stereo not drawn)	-13%	-4	-7%	4.3%

Not all compounds are listed. The share of hits here may be higher or lower than overall.
